# A1 apoptosis 2: A1 inhibition read as caspase activation | MEF A1-2A-BIM cells, caspase-Glo luminescence, 3 h; percent of clofoctol response, DMSO zero | 24,000 tested, under 10 active | caspase activation, % (no concentration beside the values); in the data active = caspase activation above about 5.9%;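 also: wells of about 30 µL received 50 nL stock; the first replicate is given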
#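 Material: A1-2A-BIM-expressing MEF cells. Buffer or medium: RPMI-1640 plus 10% FBS. Incubation: cells settled overnight, compound exposure 3 h at 37 °C, 5% CO2. Signal: Caspase-Glo 3/7 luminescence, 1 h at room temperature.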
# Starred values were filed as active, the others as inactive.
no.	SMILES	A1 apoptosis 2
1	CC(C)NC(=O)N(C)C[C@@H]1OCCCC[C@@H](C)Oc2ccc(NS(=O)(=O)c3ccccc3)cc2C(=O)N([C@@H](C)CO)C[C@H]1C	-0.2
2	Cc1noc(C)c1NC(=O)N(C)C[C@@H]1Oc2c(NS(=O)(=O)c3cccs3)cccc2C(=O)N([C@@H](C)CO)C[C@H]1C	0.2
3	C[C@H]1CCCCO[C@@H](CN(C)C(=O)NC2CCCCC2)[C@@H](C)CN([C@@H](C)CO)C(=O)c2cc(NS(C)(=O)=O)ccc2O1	-0.6
4	C[C@H](CO)N1C[C@H](C)[C@@H](CN(C)C)OCCCC[C@H](C)Oc2ccc(NC(=O)Nc3ccccc3)cc2C1=O	0.2
5	CC(C)NC(=O)Nc1ccc2c(c1)CC(=O)N([C@H](C)CO)C[C@@H](C)[C@@H](CN(C)S(=O)(=O)c1ccccc1)O2	-1.2
6	C[C@@H]1CN([C@@H](C)CO)C(=O)c2cc(NC(=O)Nc3ccccc3)ccc2O[C@@H](C)CCCCO[C@H]1CN(C)S(=O)(=O)c1ccc(Cl)cc1	0.1
7	CC(C)NC(=O)N(C)C[C@@H]1Oc2ccc(NC(=O)Nc3ccccc3)cc2CC(=O)N([C@@H](C)CO)C[C@@H]1C	1.8
8	C[C@H](CO)N1C[C@H](C)[C@H](CN(C)Cc2ccc(-c3ccccc3)cc2)Oc2ccc(NS(=O)(=O)c3cn(C)cn3)cc2CC1=O	1.3
9	C[C@H]1CN([C@@H](C)CO)C(=O)c2cc(NC(=O)C3CCCCC3)ccc2O[C@@H]1CN(C)S(=O)(=O)c1cn(C)cn1	0.0
10	C[C@H](CO)N1C[C@H](C)[C@H](CN(C)Cc2ccc(C(=O)O)cc2)Oc2ccc(NS(=O)(=O)c3ccccc3)cc2C1=O	-1.3
11	C[C@@H]1CCCCO[C@@H](CN(C)S(=O)(=O)c2ccc(F)cc2)[C@H](C)CN([C@H](C)CO)C(=O)c2cc(NS(=O)(=O)c3cn(C)cn3)ccc2O1	-0.8
12	C[C@H](CO)N1C[C@H](C)[C@@H](CN(C)Cc2ccc(Oc3ccccc3)cc2)Oc2c(cccc2N(C)C)C1=O	-0.5
13	Cc1noc(C)c1S(=O)(=O)Nc1cccc2c1O[C@H](CN(C)CC1CC1)[C@H](C)CN([C@@H](C)CO)C2=O	-1.0
14	CC(C)NC(=O)Nc1ccc2c(c1)C(=O)N([C@@H](C)CO)C[C@H](C)[C@H](CN(C)C(=O)Nc1ccccc1)OCCCC[C@H](C)O2	0.4
15	O=C(CCCCCCC(=O)Nc1ccccc1O)NN=C1CCCCCCC1	-0.1
16	C[C@H](CO)N1C[C@H](C)[C@H](CN(C)Cc2ccc(C(=O)Nc3ccccc3N)cc2)Oc2ccc(NC(=O)C3CC3)cc2C1=O	0.3
17	C[C@@H]1CN([C@@H](C)CO)C(=O)c2cccc(NC(=O)C3CC3)c2O[C@@H]1CN(C)C(=O)Nc1ccc2c(c1)OCO2	0.0
18	CNC[C@H]1Oc2ccc(NS(C)(=O)=O)cc2CC(=O)N([C@@H](C)CO)C[C@@H]1C	0.1
19	COc1ccc(NC(=O)Nc2ccc3c(c2)CC(=O)N([C@@H](C)CO)C[C@@H](C)[C@@H](CN(C)Cc2ccc(C(F)(F)F)cc2)O3)cc1	-0.6
20	C[C@H]1CN([C@@H](C)CO)C(=O)Cc2cc(NC(=O)CCCCCC(=O)Nc3ccccc3N)ccc2O[C@H]1CN(C)S(C)(=O)=O	1.7
21	COc1ccc(NC(=O)N(C)C[C@@H]2Oc3ccc(NS(=O)(=O)c4ccc(OC)cc4)cc3CC(=O)N([C@H](C)CO)C[C@H]2C)cc1	0.4
22	C[C@H]1CN([C@@H](C)CO)C(=O)CCCn2cc(nn2)CO[C@@H]1CN(C)C(=O)c1ccncc1	0.4
23	CNC[C@H]1OCCCC[C@@H](C)Oc2ccc(NS(C)(=O)=O)cc2C(=O)N([C@@H](C)CO)C[C@@H]1C	-1.2
24	CC(C)NC(=O)Nc1ccc2c(c1)C(=O)N([C@@H](C)CO)C[C@H](C)[C@H](CN(C)Cc1ccncc1)OCCCC[C@@H](C)O2	-0.7
25	C[C@@H]1CN([C@@H](C)CO)C(=O)c2cc(NC(=O)Cc3cn(C)c4ccccc34)ccc2O[C@H]1CN(C)C(=O)Nc1ccc2c(c1)OCO2	-0.4

# A different layout for part of the listing above:
6) C[C@@H]1CN([C@@H](C)CO)C(=O)c2cc(NC(=O)Nc3ccccc3)ccc2O[C@@H](C)CCCCO[C@H]1CN(C)S(=O)(=O)c1ccc(Cl)cc1
- A1 apoptosis 2: 0.1

7) CC(C)NC(=O)N(C)C[C@@H]1Oc2ccc(NC(=O)Nc3ccccc3)cc2CC(=O)N([C@@H](C)CO)C[C@@H]1C
- A1 apoptosis 2: 1.8

8) C[C@H](CO)N1C[C@H](C)[C@H](CN(C)Cc2ccc(-c3ccccc3)cc2)Oc2ccc(NS(=O)(=O)c3cn(C)cn3)cc2CC1=O
- A1 apoptosis 2: 1.3

9) C[C@H]1CN([C@@H](C)CO)C(=O)c2cc(NC(=O)C3CCCCC3)ccc2O[C@@H]1CN(C)S(=O)(=O)c1cn(C)cn1
- A1 apoptosis 2: 0.0

# Other entries follow.
no.	SMILES	A1 apoptosis 2
26	Cc1ccc(S(=O)(=O)N(C)C[C@H]2Oc3ccc(NS(C)(=O)=O)cc3C(=O)N([C@H](C)CO)C[C@@H]2C)cc1	-0.1
27	C[C@@H]1CN([C@@H](C)CO)C(=O)c2cccc(NC(=O)Nc3ccc(C(F)(F)F)cc3)c2O[C@H]1CN(C)Cc1ccc(Cl)c(Cl)c1	-0.6
28	C[C@@H]1CN([C@@H](C)CO)C(=O)Cc2cc(NS(=O)(=O)c3ccc(F)cc3)ccc2O[C@@H]1CN(C)Cc1ccc(C(F)(F)F)cc1	-1.2
29	COc1ccc(NC(=O)Nc2ccc3c(c2)CC(=O)N([C@H](C)CO)C[C@H](C)[C@H](CN(C)Cc2ccc(Cl)c(Cl)c2)O3)cc1	1.9
30	C[C@@H]1CN([C@@H](C)CO)C(=O)CCCn2cc(nn2)CO[C@@H]1CN(C)C(=O)c1ccc2ccn(C)c2c1	0.5
31	C[C@@H]1CN([C@H](C)CO)C(=O)c2cccc(NC(=O)Nc3ccc(C(F)(F)F)cc3)c2O[C@@H]1CN(C)Cc1ccc(C(=O)O)cc1	-0.3
32	C[C@H]1CN([C@@H](C)CO)C(=O)c2cc(NC(=O)Nc3ccc(F)cc3)ccc2O[C@@H]1CN(C)Cc1ccc2c(c1)OCO2	-0.4
33	COc1ccc([C@H]2C[C@H]3C(Br)=CC2C(=O)[C@]32CO2)cc1	0.3
34	C[C@H]1CN([C@@H](C)CO)C(=O)CCCn2nncc2CO[C@@H]1CN(C)S(C)(=O)=O	1.0
35	COc1ccc(NC(=O)N(C)C[C@H]2Oc3ccc(NS(=O)(=O)c4cccs4)cc3C(=O)N([C@H](C)CO)C[C@H]2C)cc1	-0.2
36	C[C@@H]1CN([C@H](C)CO)C(=O)c2cccc(NC(=O)c3ccncc3)c2O[C@H]1CN(C)C(=O)Nc1ccccc1	1.4
37	C[C@H](CO)N1C[C@H](C)[C@H](CN(C)C(=O)C2CCCCC2)OCCCC[C@H](C)Oc2ccc(NS(=O)(=O)c3cccs3)cc2C1=O	-0.9
38	Cc1noc(C)c1NC(=O)N(C)C[C@@H]1Oc2ccc(NC(=O)Nc3ccc4c(c3)OCO4)cc2C(=O)N([C@H](C)CO)C[C@H]1C	1.2
39	COc1ccc(NC(=O)Nc2cccc3c2O[C@@H](CN(C)Cc2ccc(C(=O)O)cc2)[C@@H](C)CN([C@H](C)CO)C3=O)cc1	1.2
40	Cc1ccc(S(=O)(=O)N(C)C[C@@H]2Oc3c(NC(=O)c4cnccn4)cccc3C(=O)N([C@H](C)CO)C[C@@H]2C)cc1	0.5
41	COc1ccc([Si](C)(C)[C@@H]2[C@@H](CCn3cc(CCO)nn3)O[C@]3(C(=O)N(Cc4cccc(N5CCOC5=O)c4)c4ccccc43)[C@H]2C)cc1	-0.5
42	C[C@H](CO)N1C[C@H](C)[C@H](CN(C)C(=O)Nc2ccc(C(F)(F)F)cc2)Oc2ccc(NS(=O)(=O)c3cccs3)cc2CC1=O	0.6
43	COc1ccc(NC(=O)N(C)C[C@@H]2Oc3ccc(NS(=O)(=O)c4c(C)noc4C)cc3C(=O)N([C@@H](C)CO)C[C@H]2C)cc1	0.0
44	C[C@H](CO)N1C[C@H](C)[C@@H](CN(C)Cc2ccc(C(=O)Nc3ccccc3N)cc2)Oc2c(cccc2N(C)C)C1=O	2.8
45	C[C@H]1CN([C@@H](C)CO)C(=O)c2cc(NC(=O)Nc3ccc4c(c3)OCO4)ccc2O[C@H]1CN(C)Cc1ccc(C(F)(F)F)cc1	-0.8
46	C[C@@H]1CCCCO[C@H](CN(C)C(=O)c2ccncc2)[C@H](C)CN([C@@H](C)CO)C(=O)c2cc(NC(=O)Cc3ccccc3)ccc2O1	0.3
47	COc1ccc([Si](C)(C)[C@H]2[C@H](CCO)O[C@@]3(C(=O)N(Cc4ccccc4)c4ccc(N5CCCCC5=O)cc43)[C@@H]2C)cc1	-0.6
48	COc1ccc(S(=O)(=O)Nc2ccc3c(c2)C(=O)N([C@@H](C)CO)C[C@H](C)[C@H](CN(C)Cc2ccncc2)O3)cc1	-0.4
49	C[C@@H]1CN([C@@H](C)CO)C(=O)c2cc(NC(=O)Nc3ccc(C(F)(F)F)cc3)ccc2O[C@H]1CN(C)Cc1ccc(C(=O)O)cc1	0.7
50	Cc1ccc(S(=O)(=O)N(C)C[C@@H]2Oc3ncc(C#Cc4ccccc4)cc3C(=O)N([C@H](C)CO)C[C@@H]2C)cc1	-0.3
51	Cc1noc(C)c1S(=O)(=O)Nc1ccc2c(c1)C(=O)N([C@@H](C)CO)C[C@@H](C)[C@H](CN(C)C(=O)Nc1ccc(C(F)(F)F)cc1)OCCCC[C@H](C)O2	0.3
52	Cc1noc(C)c1S(=O)(=O)N(C)C[C@H]1Oc2ccc(NC(=O)C3CCCCC3)cc2CC(=O)N([C@H](C)CO)C[C@@H]1C	-0.9
53	C[C@H]1CN([C@@H](C)CO)C(=O)c2cccc(NC(=O)c3ccncc3)c2O[C@@H]1CN(C)S(=O)(=O)c1cn(C)cn1	0.4
54	C[C@H](CO)N1C[C@H](C)[C@H](CN(C)Cc2ccc(C(F)(F)F)cc2)Oc2c(NS(=O)(=O)c3cn(C)cn3)cccc2C1=O	0.0
55	Cc1noc(C)c1S(=O)(=O)N(C)C[C@@H]1OCCCC[C@@H](C)Oc2ccc(NC(=O)NC(C)C)cc2C(=O)N([C@H](C)CO)C[C@H]1C	2.1
56	C[C@H]1CN([C@@H](C)CO)C(=O)Cc2cc(NC(=O)Nc3ccc(C(F)(F)F)cc3)ccc2O[C@H]1CN(C)S(=O)(=O)c1ccc(F)cc1	-1.5
57	COc1ccc(S(=O)(=O)N(C)C[C@H]2Oc3c(NS(=O)(=O)c4ccc(C)cc4)cccc3C(=O)N([C@H](C)CO)C[C@@H]2C)cc1	-0.9
58	C[C@@H]1CCCCO[C@@H](CN(C)Cc2ccc3c(c2)OCO3)[C@@H](C)CN([C@H](C)CO)C(=O)c2cc(NC(=O)c3ccccc3)ccc2O1	0.8
59	C[C@H]1CN([C@@H](C)CO)C(=O)c2cccc(NC(=O)C3CCOCC3)c2O[C@H]1CN(C)C(=O)Nc1ccc(C(F)(F)F)cc1	-0.9
60	C[C@H]1CN([C@@H](C)CO)C(=O)CCCn2nncc2CO[C@@H]1CN(C)Cc1ccccc1C(F)(F)F	0.9
61	COc1ccc(S(=O)(=O)N(C)C[C@@H]2Oc3c(NC(=O)CCCCCC(=O)Nc4ccccc4N)cccc3C(=O)N([C@@H](C)CO)C[C@H]2C)cc1	0.3
62	C[C@H](CO)N1C[C@H](C)[C@H](CN(C)Cc2ccc(C(F)(F)F)cc2)Oc2ccc(NC(=O)Cn3cnnn3)cc2CC1=O	0.0
63	C[C@H]1CN([C@@H](C)CO)C(=O)c2cc(NC(=O)CCCCCC(=O)Nc3ccccc3N)ccc2O[C@@H]1CN(C)C(=O)Nc1ccccc1	0.8
64	COc1ccc(S(=O)(=O)N(C)C[C@H]2Oc3ccc(NC(=O)CCC(F)(F)F)cc3CC(=O)N([C@H](C)CO)C[C@@H]2C)cc1	-0.1
65	CC(C)NC(=O)Nc1ccc2c(c1)C(=O)N([C@@H](C)CO)C[C@@H](C)[C@H](CN(C)S(=O)(=O)c1ccccc1)O2	0.1
66	COc1ccc(S(=O)(=O)Nc2ccc3c(c2)C(=O)N([C@H](C)CO)C[C@H](C)[C@H](CN(C)C(=O)Cc2ccccc2)OCCCC[C@@H](C)O3)cc1	-0.6
67	C[C@@H]1CN([C@@H](C)CO)C(=O)c2cccc(N(C)C)c2O[C@H]1CN(C)S(=O)(=O)c1ccc(F)cc1	-0.4
68	COc1ccc(CN(C)C[C@@H]2OCCCC[C@H](C)Oc3ccc(NC(=O)Nc4ccc5c(c4)OCO5)cc3C(=O)N([C@H](C)CO)C[C@H]2C)cc1	-0.7
69	C[C@H](CO)N1C[C@H](C)[C@H](CN(C)S(=O)(=O)c2cccs2)OCCCC[C@H](C)Oc2ccc(NC(=O)Nc3ccc4c(c3)OCO4)cc2C1=O	0.7
70	C[C@H]1CN([C@@H](C)CO)C(=O)Cc2cc(NC(=O)C3CC3)ccc2O[C@@H]1CN(C)Cc1ccccc1	0.2

# Another view of 2 compounds above.
58	C[C@@H]1CCCCO[C@@H](CN(C)Cc2ccc3c(c2)OCO3)[C@@H](C)CN([C@H](C)CO)C(=O)c2cc(NC(=O)c3ccccc3)ccc2O1
  A1 apoptosis 2: 0.8
59	C[C@H]1CN([C@@H](C)CO)C(=O)c2cccc(NC(=O)C3CCOCC3)c2O[C@H]1CN(C)C(=O)Nc1ccc(C(F)(F)F)cc1
  A1 apoptosis 2: -0.9

# High-throughput results (PubChem BioAssay)

# The list is partial (hit frequency here may not be typical).
